GLA inh pH 4.5 – inhibitors of human alpha-galactosidase A at pH 4.5; purified enzyme, 4-MU-alpha-Gal fluorescence, pH 4.5; 230,000 tested, under 10 active; activity change, negative = inhibition, % at 105 µM; P06280; AID 1467; inconclusive = small, poorly fitted or top-dose-only inhibition, or a rising curve; inactive = flat fitted curve, though single readings scatter; no compound was filed as active;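 further: 0% = full activity with enzyme and -100% = basal without enzyme; dose as in the result columns while the protocol names 77 µM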
Target sequence (P06280 whole entry, looked up): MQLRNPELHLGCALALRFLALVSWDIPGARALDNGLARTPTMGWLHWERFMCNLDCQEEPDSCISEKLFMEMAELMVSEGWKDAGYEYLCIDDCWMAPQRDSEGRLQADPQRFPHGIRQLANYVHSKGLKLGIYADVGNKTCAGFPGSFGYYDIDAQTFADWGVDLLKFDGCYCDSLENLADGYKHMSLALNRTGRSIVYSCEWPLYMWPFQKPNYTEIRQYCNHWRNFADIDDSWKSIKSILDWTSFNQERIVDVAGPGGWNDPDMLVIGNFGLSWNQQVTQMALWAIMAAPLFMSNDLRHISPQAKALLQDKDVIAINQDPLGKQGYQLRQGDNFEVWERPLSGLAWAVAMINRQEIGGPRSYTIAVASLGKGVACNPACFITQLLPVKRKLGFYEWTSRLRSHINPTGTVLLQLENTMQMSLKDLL
Rango dissoc inh – inhibitors of RanGTP-induced Rango-importin beta complex dissociation. O95149+P62826. Biochemical FRET Rango-importin beta, RanGTP-induced dissociation. Potency, µM (doses to about 46.1 µM), without a hit: at the top dose activity change, negative = inhibition. 340,000 tested, 0.071% active; active means falling FRET ratio curve, often poorly fitted, with flat reads before Ran was added; inconclusive means other falling curves, or compound fluorescence or quenching; inactive means flat or rising ratio curve;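 further: potency means the concentration at half of the fitted maximal effect; % of control where 0% means no effect; nearly all actives have a fitted effect of over 45% in size; -100% = wells without RanGTP and RCC1; the record marks most hits as doubtful in a second field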
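Quantitative HTS using a FRET biosensor: 0.1 uM Rango, 0.25 uM importin beta, 0.6 uM Ran, 2 mM GTP, 0.2 uM RCC1 final, PBS with DTT, Tween-20 and BSA. Post-read taken 45 min after Ran addition.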
miR-21 reporter – miR-21 reporter, rising signal | HeLa miR-21 FLuc reporter, luciferase, 48 h | Potency, µM (top dose mostly 38.3 µM), for the others: at the highest dose reporter change, positive = more light | 340,000 tested, under 10 active; active = well fitted rising curve with a large enough effect; inconclusive = small, poorly fitted or top-dose-only effect; inactive = no such curve, though single readings can be large or run the other way;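 further: % of control where 0% means no effect; miR-21 action dims this reporter so a rising signal means less miR-21 action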
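HeLa cells stably expressing CMV-driven firefly luciferase with a downstream miR-21 binding sequence, endogenously expressing miR-21, were treated with titrations (up to about 40uM final) for 48 hours at 37 degree Celsius. Luciferase luminescence was read after lysis.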
Rango-impB inh – inhibitors of Rango-importin beta complex formation | Rango CFP/YFP FRET sensor + importin beta, 45 min | Potency, µM (top dose mostly 92.2 µM), inactives show at the top dose inhibition of complex formation | 340,000 tested, 0.031% active | AID 540263; active = rising FRET ratio curve, often small or poorly fitted; inconclusive = mostly compound fluorescence or quenching in the first reads; inactive = flat curves in all reads;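 further: potency means the concentration at half of the fitted maximal effect; 0% = DMSO wells and 100% = buffer wells lacking importin beta; nearly all actives have a fitted effect of over 15% in size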
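FRET biosensor (snurportin 1 IBB flanked by EYFP and cerulean), 50 nM, with compound 5 min, then 0.125 microM importin beta in PBS, 1 mM DTT, 0.02% Tween-20, 0.1% BSA. CFP/YFP ratio read after 45 min at room temperature; pre-read flags interference.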
The depositor's hits bear a star; u = inconclusive; x = no result given; & = joins results of further samples; [ ] = another dose, or the depositor's remark. The list is partial, so the mix of outcomes need not match the whole.

A first look, 5 compounds:
no.	SMILES	GLA inh pH 4.5	Rango dissoc inh	miR-21 reporter	Rango-impB inh
1	CCCCCCN=C(CC)c1c(O)n(CCCC)c(=O)[nH]c1=O	-8	4%	1%	-1.0%
2	CCCCC(=O)N/N=C/c1c(O)n(CCCC)c(=S)[nH]c1=O	-13	2%	9%	0.8%
3	CC1(O)C[C@]2(C)N(O)C3CCCC[C@@H]3N2O1 (stereo partly drawn)	-3	2%	4%	-1.3%
4	Cc1ccc2c(c1)CC1(CN2C)C(=O)NC(=O)N(c2ccccc2C)C1=O (stereo not drawn)	4	-4%	-8%	u
5	Cc1cnn(-c2cc(Oc3ccccc3)ncn2)c1	-7	-3%	-61%	-3.1%

The listing, from the first entry:
no.	SMILES	GLA inh pH 4.5	Rango dissoc inh	miR-21 reporter	Rango-impB inh
1	CCCCCCN=C(CC)c1c(O)n(CCCC)c(=O)[nH]c1=O	-8	4%	1%	-1.0%
2	CCCCC(=O)N/N=C/c1c(O)n(CCCC)c(=S)[nH]c1=O	-13	2%	9%	0.8%
3	CC1(O)C[C@]2(C)N(O)C3CCCC[C@@H]3N2O1 (stereo partly drawn)	-3	2%	4%	-1.3%
4	Cc1ccc2c(c1)CC1(CN2C)C(=O)NC(=O)N(c2ccccc2C)C1=O (stereo not drawn)	4	-4%	-8%	u
5	Cc1cnn(-c2cc(Oc3ccccc3)ncn2)c1	-7	-3%	-61%	-3.1%
6	COc1cc(C(=O)O)cc(OC)c1OC	x	2%	x	-0.1%
7	Cc1cc(S(N)(=O)=O)ccc1N=Cc1c(O)n(-c2ccccc2)c(=O)[nH]c1=O	-16	-11%	-1%	-0.5%
8	C=CCn1c(O)c(C=NCCN2CCOCC2)c(=O)[nH]c1=S	0	-23%	0%	-2.0%
9	CCCCN1C(=N)C(CC)(CC)C(=O)NC1=O	-9	5%	0%	0.1%
10	Cc1cc(C)c(-n2c(O)c(/C=N/NC(=O)c3ccncc3)c(=O)[nH]c2=O)c(C)c1	-20	u	-1%	u
11	CN1CCN2c3ccccc3CC3(C(=O)N(C)C(=O)N(C)C3=O)C2C1 (stereo not drawn)	2	-5%	5%	0.1%
12	CCCCC(=O)N/N=C/c1c(O)n(CCc2ccc(OC)c(OC)c2)c(=O)[nH]c1=O	-5	2%	-11%	9.2%

Going on with the list.
no.	SMILES	GLA inh pH 4.5	Rango dissoc inh	miR-21 reporter	Rango-impB inh
13	CN(C)C(=O)CSc1nnc([C@@H](N)Cc2ccccc2)o1	11	10%	-4%	-2.6%
14	CCCn1ncc(C(=O)O)c1C	-7	-26%	-7%	0.1%
15	COC(=O)C1=C(c2ccc(F)cc2OCc2ccccc2)C[C@@H]2CC[C@H]1N2C(=O)N1CCCCC1	x	0%	x	-3.0%
16	Cc1ccc(C)c(OCC(=O)N2CCCN(C)CC2)c1	22	4%	-6%	0.3%
17	COc1ccc(CNC(=O)Cn2c(=O)oc3cc(S(=O)(=O)N4CCCC4)ccc32)cc1	x	0%	-2%&14%	0.5%
18	CP(=O)(Nc1ccc(Cl)cc1)c1nc2c(s1)CCCC2 (stereo not drawn)	-6	26%	1%	-1.2%
19	CC1CCCCC12C(=O)NC(=O)NC2=O (stereo not drawn)	x	6%	x	-1.0%
20	O=C1NC(=O)N(CCNc2ncc(C(F)(F)F)cc2Cl)C(=O)C1Cc1ccc(Cl)cc1 (stereo not drawn)	-4	0%	0%	3.3%
21	O=C(c1cccnc1)c1cc2ccccc2[nH]1	-2	-1%	-18%	0.5%
22	CCOc1ccccc1CNCCc1ccc2c(c1)OCO2	x	13%	-6%	-1.0%
23	COC(=O)C1=C(c2cccc(OC)c2OC)C[C@@H]2CC[C@H]1N2C(=O)N1CCCC1	x	-5%	x	-1.0%
24	COC(COC(N)=O)C1=C(N2CC2)C(=O)C(C)=C(N2CC2)C1=O (stereo not drawn)	x	9%	x	u

New compounds follow
no.	SMILES	GLA inh pH 4.5	Rango dissoc inh	miR-21 reporter	Rango-impB inh
25	Cc1cc(OC(C)C(=O)NCc2ccncc2)c2c3c(c(=O)oc2c1)CCC3 (stereo not drawn)	x	0%	0%	-2.5%
26	Cc1cccc(OP(=O)(Oc2cccc(C)c2)OC(c2ccccc2)C(F)(F)F)c1 (stereo not drawn)	-8	1%	1%	0.0%
27	Cc1cccc(N2C(=O)/C(=C/c3ccc(N4CCN(C)CC4)o3)C(=O)NC2=S)c1C	8	-19%	-3%	u
28	O=c1[nH]c(=S)n(CCC2=CCCCC2)c(O)c1/C=N/Nc1ccccc1	-5	-9%	-21%	u
29	CC1(C(O)(C#CCN2CCCCC2)c2ccccc2)CCCC1 (stereo not drawn)	-14[21.1 µM]	-14%	29%	0.1%
30	Cc1ccc(OP(=O)(O)Oc2ccc(C)cc2)cc1	x	12%	x	-0.1%
31	COC(=O)c1ccc(N=C(c2ccccc2)c2c(O)n(C)c(=O)n(C)c2=O)cc1	-1	33%	-12%	5.6%
32	CC12CCC3C(CC=C4CC(O)CCC43C)C1C/C(=C\N1CCCC1)C2=O (stereo not drawn)	6	x	-3%	x
33	COc1ccc(N2CC2c2ccncc2)cc1 (stereo not drawn)	-4	1%	-4%	13%
34	C[C@]12CCC(=O)C=C1C=CC1C2CC[C@]2(C)C(=O)CCC12 (stereo partly drawn)	x	-1%	x	-2.6%
35	COc1cc(OC)cc(C2(C#N)CCN(C)CC2)c1	0	7%	4%	1.8%
36	O=C(N/N=C/c1ccc(C(F)(F)F)cc1)c1ccncc1	x	-6%	-7%	u

Going on with the list:
no.	SMILES	GLA inh pH 4.5	Rango dissoc inh	miR-21 reporter	Rango-impB inh
37	CC1(C)C2([N+](=O)[O-])CN3CC1([N+](=O)[O-])CN(C2)C3c1cccnc1 (stereo not drawn)	-12	-2%	-1%	-1.5%
38	Cc1nc2cc(C(=O)N3CCC4(CC3)OCCO4)ccc2n1-c1cccc(F)c1	-2	3%	-4%	0.4%
39	NP(=O)(OCCCCc1ccccc1)Oc1ccccc1Cl (stereo not drawn)	x	-15%	2%	0.0%
40	CC1=CC2OC3CC4OC(=O)C=CC=CC(=O)OCCC(C)C(O)C(=O)OCC2(CC1)C4(C)C31CO1 (stereo not drawn)	x	18%	x	-1.4%
41	CCCC(=O)NC1=C(N2CC2)C(=O)C(NC(=O)CCC)=C(N2CC2)C1=O	x	3%	x	0.0%
42	CC(Cc1ccccc1)NC(=O)CCCCC(=O)NC(C)Cc1ccccc1 (stereo not drawn)	x	-5%	1%	7.4%
43	O=C1C(Cl)=C(N2CCOCC2)C(=O)N1c1ccccc1F	x	21%	8%	u
44	COC(=O)C1=C(c2ccc(F)cc2F)C[C@@H]2CC[C@H]1N2C(=O)NCCNC(C)=O	x	14%	x	-1.0%
45	Cc1c(Cl)cccc1N1C(=O)NC(=O)/C(=C\c2cc(C)n(-c3cccc(C(=O)O)c3C)c2C)C1=O	x	-20%	1%	u
46	COC(=O)C1=C(c2ccc(OC(F)(F)F)cc2)C[C@@H]2CC[C@H]1N2C(=O)NCCOc1ccccc1	x	23%	x	8.3%
47	CN1[C@@H]2CC[C@H]1CC(OC1c3ccccc3CCc3ccccc31)C2 (stereo partly drawn)	3	16%	x	-1.4%
48	O=C(NCc1cccnc1)Nc1ccc([N+](=O)[O-])cc1	x	1%	3%	-2.8%

Next part
no.	SMILES	GLA inh pH 4.5	Rango dissoc inh	miR-21 reporter	Rango-impB inh
49	O=C1Nc2ccccc2C1Cc1nc2ccccc2c(=O)n1-c1ccccc1 (stereo not drawn)	-3	-18%	-15%	0.9%
50	CC1(C)NC(=O)[C@H]2CCCN21	x	-5%	x	-1.3%
51	CC(=O)N1CC(=O)Nc2ccc(Br)cc2C1c1ccc(F)cc1 (stereo not drawn)	x	14%	-17%	-0.9%
52	Cc1ccc(-n2c(O)c(C=NCCN3CCNCC3)c(=O)[nH]c2=S)cc1	x	8%	-2%	0.4%
53	O=[N+]([O-])c1ccc(NC2CCN(Cc3ccccc3)CC2)c2ccncc12	x	0%	3%	-1.2%
54	COCc1cc(OC(=O)N(C)C)nc(-c2ccc(C)c(Cl)c2)n1	-1	-8%	4%	1.3%
55	C[C@]12CC[C@H](O)CC1=CC(=O)C1C2CC[C@]2(C)C(=O)CCC12 (stereo partly drawn)	x	-10%	x	1.2%
56	Cc1cc(Oc2ccc(C(F)(F)F)cc2[N+](=O)[O-])c2c3c(c(=O)oc2c1)CCC3	2	2%	-5%	-1.3%
57	CN(C(=O)CN1CC=C(c2ccccc2)CC1)c1c(N)n(Cc2ccccc2)c(=O)[nH]c1=O	1	-7%	-4%	5.6%
58	CN1CCN(C(=O)COc2ccc3ccccc3c2)CC1	x	0%	-30%	1.9%
59	COc1ccc(-c2nc3ccccc3c(=O)o2)cc1	5	9%	-5%	-3.6%
60	O=C(Cn1nc(-c2ccc(Cl)cc2)ccc1=O)N1CCC2(CC1)OCCO2	1	16%	-8%	-3.6%

Other results follow.
no.	SMILES	GLA inh pH 4.5	Rango dissoc inh	miR-21 reporter	Rango-impB inh
61	CCOP(=S)(OCC)SCCSCC	x	-13%	x	-1.6%
62	Clc1cccc(Cl)c1C1N2CCCN12 (stereo not drawn)	-1	-4%	-5%	3.8%
63	COc1ccc(-c2nn(CCC#N)cc2C(=O)Nc2ccccc2)cc1OC	x	-7%	-7%	2.7%
64	Fc1ccccc1CNCCc1ccc2c(c1)OCO2	x	-10%	-12%	u
65	CC1([N+](=O)[O-])COP(=O)(Nc2cccc(Br)c2)OC1 (stereo not drawn)	x	-9%	x	1.0%
66	COc1ccc(C(O)CNC(C)C)c(F)c1OC (stereo not drawn)	x	0%	x	0.2%
67	O=C1C(Cc2cnc[nH]2)NC(=S)N1c1ccccc1 (stereo not drawn)	x	-6%	-10%	1.0%
68	CC(=O)Nc1ccccc1C(=O)OCC(=O)c1ccccc1Cl	-2	-5%	-65%	0.0%
69	CC(C)(C)OC(=O)NCc1ccc(CNC(=O)c2nc[nH]c2C(=O)NCc2ccc(CNC(=O)OC(C)(C)C)cc2)cc1	x	-10%	x	u
70	CCOC(=O)C1CCN(/C=C2/C(=O)NC(=S)N(c3ccccc3F)C2=O)CC1	7	-19%	-1%	-1.4%

Only Rango-impB inh and Rango dissoc inh, for 2 of the compounds above:
no.	SMILES	Rango-impB inh	Rango dissoc inh
69	CC(C)(C)OC(=O)NCc1ccc(CNC(=O)c2nc[nH]c2C(=O)NCc2ccc(CNC(=O)OC(C)(C)C)cc2)cc1	u	-10%
70	CCOC(=O)C1CCN(/C=C2/C(=O)NC(=S)N(c3ccccc3F)C2=O)CC1	-1.4%	-19%
